PINK1 expr mod = changes PINK1 expression; PINK1 immunofluorescence, high-content cytometry, 24 h; Potency, µM (series often up to 76.6 µM), for inactives: top-dose activation (PINK1 increase), actives largely listed as activators; 410,000 compounds, 0.2% hits; AID 624263; active = well fitted activation curve with a large enough effect; inconclusive = small, poorly fitted or top-dose-only effect; inactive = flat fitted curve, though single readings scatter; cell line not stated here;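 also: % of control where 0% means no effect; nearly all actives have a fitted effect of over 65% in size; a mitochondrial uncoupler was the plate control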
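Decision-based qHTS: stable cells, 24 h exposure to five compound concentrations, CCCP as control. Fixed cells stained for PINK1 plus nuclear, mitochondrial and cell markers, cytometer read.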
* marks the source's active call; other numbers are inactive results. Potency is read from the fitted curve at half-maximal effect.

SMILES	PINK1 expr mod
COCCn1c(=O)c(-c2cn(C)c3ccccc23)nc2cnc(OCc3ccccc3)nc21	1.8%
COc1ccccc1CN1CCCC2(CCN(C(=O)c3cc(C(F)(F)F)cc(C(F)(F)F)c3)CC2)C1	-0.6%
O=S(=O)(c1ccccc1)N1CCC2(CCCN(c3cccc(-c4ccccc4)c3)C2)CC1	-0.2%
O=S(=O)(NCCCCNS(=O)(=O)c1c(F)cccc1F)c1ccc2c(c1)OCCO2	-0.5%
O=C(Oc1ccccc1)N1CCC[C@@]2(CCN(c3ncccn3)C2)C1	0.1%
N#CCCn1c(=O)c(-c2cccs2)nc2cnc(Oc3ccccc3)nc21	6.9%
Cc1nn(-c2ccc(F)cc2)c(C)c1CNC(=O)c1ccc(-n2cc(NC(=O)c3ccoc3)cn2)cc1	1.8%
Cc1cc(C(=O)NCCN2Cc3ccccc3OC(c3ccccc3F)C2)no1 (stereo not given)	-0.7%
CN(C)c1ccc(-c2cncnc2NCc2cccnc2)cc1	0.1%
COc1ccc(C(=O)N2CCC[C@@]3(CCN(C)C3)C2)cc1	-0.5%
Cc1ccc2[nH]c3c(c2c1)CN(C(=O)CC1(c2ccccc2)CC(=O)N(Cc2cccnc2)C1=O)CC3 (stereo not given)	2.7%
N#Cc1cccc(-c2nc(N3CCNCC3)c3ccccc3n2)c1	2.5%
C/C(=C\c1ccccc1F)C1Nc2cccc3cccc(c23)N1	-0.5%
COC(=O)c1cc(CNC(=O)c2ccc(N(C)C)cc2)cc(NC(=O)c2ccccc2Cl)c1	0.2%
COc1ccc(/C=C/c2cc(O)cc(O[C@H]3OC(CO)C(O)C(O)C3O)c2)cc1 (stereo not given in full)	-0.1%
Cn1c(=O)c(-c2ccc(Cl)cc2)nc2cnc(Oc3cccc(Cl)c3)nc21	0.4%
COc1ccc(OC)c(CN2CCOc3ccc(CN4CCC(O)(c5cccnc5)CC4)cc3C2)c1	-0.7%
O=C1CC(CC(=O)N2CC3CCCC2C3)(c2cccc(F)c2)C(=O)N1Cc1cccnc1 (stereo not given)	0.5%
O=C(c1ccccc1-n1cccn1)N1CCOc2ccc(CN3CCOCC3)cc2C1	0.7%
Nc1ncnc2c1[nH]c(=O)n2C1OC(CO)C(O)C1O (stereo not given)	-0.7%
CN(C)C(=O)c1ccc(-c2cncnc2NCc2cccnc2)cc1	-1.1%
C[C@@]12CCC3c4ccc(OS(=O)(=O)O)cc4CCC3C1CCC2O (stereo not given in full)	-1.2%
COC(=O)c1ccccc1-c1cc(C)cc2c1OC(CNC(=O)C1CCCO1)C2 (stereo not given)	0.0%
O=C(CN1Cc2ccccc2OC(c2ccsc2)C1)NCc1ccc2c(c1)OCO2 (stereo not given)	-0.6%
O=C(NCC1Cc2cc(F)cc(-c3cnccn3)c2O1)C1COc2ccccc2O1 (stereo not given)	0.6%
Cn1ccc2cc(-c3csc(N4CCC(C(N)=O)CC4)n3)ccc21	0.2%
CNC(=O)[C@@H]1C[C@@H](NCc2cccc(Oc3ccccc3)c2)CN1C(C)C	0.9%
CN1CCCC(CNC(=O)c2cnn(-c3nccc(-c4cccs4)n3)c2C2CC2)C1 (stereo not given)	-1.3%
CCOC(=O)c1c(C)cc(O)c(C)c1O	0.0%
Cc1noc(C)c1C(=O)N1CCC2(CC1)CCN(c1ccccn1)CC2	1.1%
O=C1c2ccccc2CCc2ccc(Br)cc21	0.7%
COc1ccc(-c2nc3cnc(N4CCN(C)CC4)nc3n(Cc3cccs3)c2=O)cc1	13.4%
CCN(CC)CCNC(=O)c1cnn(-c2ncc3c(n2)-c2ccc(OC)cc2CC3)c1C	-0.9%
CN(C)C(=O)c1ccc(-c2nc(Nc3ccc(F)cc3)c3ccccc3n2)cc1	0.6%
COc1ccccc1CNc1ccnc(-c2cccc(C#N)c2)n1	1.1%
O=C(NCC1Cc2cc(-c3cncnc3)cc(Cl)c2O1)c1cccc(Cn2cccn2)c1 (stereo not given)	-0.1%
COc1ccc2[nH]cc(CCNc3nc(-c4ccc(N(C)C)cc4)nc4ccccc34)c2c1	16.1%
CC1(C)CC(C(=O)N2CCOc3ccc(CN4CCC(Oc5cccnc5)CC4)cc3C2)CCO1 (stereo not given)	-0.6%
COc1ccccc1CN1CCC2(CC1)CCN(S(C)(=O)=O)CC2	-1.2%
CCc1nc2cc(C(=O)NC3CCS(=O)(=O)C3)cc(NC(=O)c3ccccc3OC)c2n1C (stereo not given)	2.1%
CC(C)NC(=O)N1CC[C@@]2(CCCN(C(=O)c3ccncc3)C2)C1	1.4%
O=c1c(-c2cc(F)cc(F)c2)nc2cnc(N3CCOCC3)nc2n1C[C@H]1CCCO1	0.3%
Cc1ccccc1-c1ccc2ncnc(NCCN3CCOCC3)c2c1	-0.2%
O=c1c(-c2cccc(F)c2)nc2cncnc2n1Cc1ccccc1Cl	0.7%
COc1ccccc1CCNc1ncnc2sc(C(=O)N3CCCN(C=O)CC3)c(C)c12	1.2%
c1nc(NCc2ccc3c(c2)OCO3)c2cc(-c3ccoc3)ccc2n1	4.0%
Cc1cnc(SCc2ccccn2)nc1C1CCCN(C(=O)c2ccc3[nH]c(C)c(C)c3c2)C1 (stereo not given)	0.3%
Cc1noc(C)c1-c1cc(N(C)C)ncn1	-1.3%
Cn1c(CCNC(=O)C2CC23CCN(C(=O)C2=CCCC2)CC3)nc2ccccc21 (stereo not given)	-0.3%
O=C(O)/C=C(\CC(=O)O)C(=O)O	-0.6%

More entries.
SMILES	PINK1 expr mod
Cc1ncc2c(c1CNC(=O)c1ccc3c(c1)OCO3)CCN(C(=O)c1coc3c1C(=O)CCC3)C2	-0.3%
CCNc1ncc2nc(-c3cccs3)c(=O)n(Cc3cccc(OC)c3)c2n1	16.2%
CC1(C)OC2C(CO)OC(n3cnc4c(=O)[nH]c(N)nc43)C2O1 (stereo not given)	4.6%
Cn1c(=O)c(-c2ccc(F)cc2)nc2cnc(OCc3ccccc3)nc21	2.0%
c1nc(N2CCNCC2)c2cc(-c3ccc4c(c3)OCO4)ccc2n1	-0.1%
CCOc1ccc2nc(N3CCCN(CCCn4cccn4)CC3)nc(C)c2c1	-0.6%
CC(O)(COc1ccccc1)c1ccc2c(c1)CN(Cc1cccn1-c1ccccn1)CCO2 (stereo not given)	0.0%
O=c1c(CN2CCOc3ccc(CN4CCC(Oc5cccnc5)CC4)cc3C2)coc2ccccc12	-0.3%
COc1ccc(CN2CCCC(c3nc(-c4ccncc4)ncc3-c3ccccc3C)C2)c(OC)c1 (stereo not given)	1.0%
Cn1nnnc1Sc1ncnc2scc(-c3cccc(C(F)(F)F)c3)c12	-1.2%
COc1cccc(Cn2c(=O)c(-c3ccc(Cl)cc3)nc3cnc(N4CCN(C)CC4)nc32)c1	1.0%
Cc1c(C(=O)NCC(C)(C)N2CCOCC2)cnn1-c1ncc2c(n1)-c1ccccc1CC2	0.0%
COc1ccccc1CN1CC2(CCN(C(=O)c3cccc(F)c3)CC2)C1	-0.8%
COCc1c(C(=O)N2CCN(C3CCCC3)CC2)cnn1-c1ncc2c(n1)-c1ccccc1CCC2	0.0%
COc1ccc(CN2CCOc3ccc(CN4CCC(Oc5cccnc5)CC4)cc3C2)cc1C	-0.1%
Cc1cnc(CNc2cc(-c3c(C)noc3C)ncn2)cn1	0.2%
COc1ccc2[nH]cc(CCNc3ccnc(-c4ccc5c(c4)OCO5)n3)c2c1	1.5%
O=c1c(-c2ccc(F)cc2)nc2cnc(Oc3cccc(Cl)c3)nc2n1C1CC1	1.4%
CCC1CN(Cc2cccn2-c2ccccn2)Cc2cc(OC)ccc2O1 (stereo not given)	-0.3%
CN(C)Cc1ccccc1-c1nccc(N(C)C)n1	2.0%
O=c1c(-c2cc(F)cc(F)c2)nc2cncnc2n1Cc1ccc(F)cc1	-0.6%
COCCn1c(=O)c(-c2ccccc2)nc2cnc(Oc3cccc(Cl)c3)nc21	0.9%
N#CCCn1c(=O)c(-c2cc(F)cc(F)c2)nc2cnc(Oc3ccccc3)nc21	1.5%
Cc1nc2cncnc2n(Cc2ccc(F)cc2)c1=O	1.5%
COc1ccc2c(c1)-c1nc(-n3ncc(C(=O)N(C)CC4CCCN(C)C4)c3C)ncc1CC2 (stereo not given)	1.8%
Cc1cnc(C)c(-c2cccc3c2OC(CNC(=O)C2(c4ccc(Cl)cc4)CC2)C3)n1 (stereo not given)	-0.4%
COc1cc(=O)n2c(c1C(=O)NC(C)c1ccco1)CCN(Cc1ccccc1Cl)CC2 (stereo not given)	-0.6%
Cn1cccc1C(=O)N1CCC2(CCN(Cc3ccccc3)CC2)CC1	0.2%
O=C(c1cnccn1)N1CCC2(CCCN(c3ncccn3)C2)CC1	-0.8%
COc1ccccc1C1CN(Cc2cccc(OCCO)c2)Cc2ccccc2O1 (stereo not given)	0.0%
O=C(c1ccco1)N1CCC[C@@]2(CCN(c3ccncc3)C2)C1	0.6%
Cc1cc(=O)c(C(=O)NCCCc2ccncc2)c2n1-c1ccccc1SC(c1cccs1)C2 (stereo not given)	0.8%
CN(C)c1ncc2nc(-c3ccc(F)cc3)c(=O)n(-c3ccccc3)c2n1	14.2%
CC(=O)Nc1cc(C(=O)N2CCN(c3ccccc3)CC2C)cc2ncn(CCc3ccccn3)c12 (stereo not given)	-0.4%
Cc1cc(-c2ccnc(-n3ncc(C(=O)NCCc4ccncc4)c3C)n2)c(C)s1	0.6%
COC(=O)c1cccc(-c2cc(Cl)c3c(c2)CC(CNC(=O)c2cccnc2)O3)c1 (stereo not given)	0.1%
COc1cccc(-c2cncnc2NCc2cccs2)c1	7.3%
COc1cccc(-c2nc(N(C)Cc3ccco3)c3ccccc3n2)c1	0.0%
O=C(c1ccncc1)N1CCC2(CC1)CN(c1ccncc1)C2	-0.9%
COCCn1c(=O)c(-c2ccc(OC)cc2)nc2cnc(Nc3cccc(OC)c3)nc21	16.3%
O=c1c(-c2cc(F)cc(F)c2)nc2cnc(N3CCOCC3)nc2n1Cc1ccc(F)cc1	0.1%
O=C(Nc1cccc(F)c1)N1CCCC2(CCN(C(=O)c3cc(C(F)(F)F)cc(C(F)(F)F)c3)CC2)C1	2.0%
OCCNc1nc(Nc2cc(Cl)ccc2OC2CCCC2)nc(N2CCCC2)n1	0.3%
c1ccc(CNc2ccnc(-c3cccnc3)n2)cc1	-0.3%
O=c1cnc2cnc(Oc3ccccc3)nc2n1Cc1cccs1	-0.6%
COc1ccc(NC(=O)N2CCC3(CC2)CCN(C(=O)c2cnccn2)CC3)cc1	2.2%

Screening results deposited in PubChem BioAssay by National Center for Advancing Translational Sciences (NCATS).

The list is partial (hit frequency here may not be typical).
